Compound activity from PubChem.
RGS16-Gao: RGS16-Galphao interaction regulator (human); binding response (% of control), % at 10 µM; O15492+P09471; bead-based flow cytometry RGS16-Galphao binding, fluorescence; actives lie on both sides; 220,000 tested, 0.38% active;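 active means below 25% or above 175%, edge rows of some plates excepted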;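 further: Galphao activated by GDP with aluminum fluoride before binding; 100% = wells without compound and 0% = beads without RGS; some results beyond the cut were filed as inactive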
Target sequence (O15492 whole entry, looked up): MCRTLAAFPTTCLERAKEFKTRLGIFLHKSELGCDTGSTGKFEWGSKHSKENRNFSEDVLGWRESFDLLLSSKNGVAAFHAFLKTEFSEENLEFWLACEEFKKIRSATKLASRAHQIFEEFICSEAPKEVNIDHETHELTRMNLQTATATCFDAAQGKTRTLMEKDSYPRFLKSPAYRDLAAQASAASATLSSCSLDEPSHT
Target sequence (P09471 whole entry, looked up): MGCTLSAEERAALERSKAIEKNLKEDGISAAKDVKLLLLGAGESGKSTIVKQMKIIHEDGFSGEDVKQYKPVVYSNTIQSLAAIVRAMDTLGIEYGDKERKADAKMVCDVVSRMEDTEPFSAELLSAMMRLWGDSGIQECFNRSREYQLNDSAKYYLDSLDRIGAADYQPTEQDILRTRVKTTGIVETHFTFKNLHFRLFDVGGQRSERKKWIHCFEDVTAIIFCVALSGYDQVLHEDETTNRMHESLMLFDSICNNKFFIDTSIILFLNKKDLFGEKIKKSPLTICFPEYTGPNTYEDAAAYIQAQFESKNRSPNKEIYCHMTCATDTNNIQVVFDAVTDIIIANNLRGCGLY
PKD1 inh: inhibitors of human PKD1 kinase. 200,000 tested, 0.056% active. inhibition, %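 (about 10 µM by stock and volumes)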. AID 797. PKD1 kinase fluorescence polarization assay. Q15139;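 active means inhibition of 50% or more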;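 further: controls were vehicle for no effect and a reference inhibitor for full effect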
HSV replic up: HSV replication enhancement | HSV replication augmentation in cells, fold increase | maximum fold increase | 220,000 tested, 0.005% active;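 active means peak rise of 1.5-fold or more in the series; inconclusive means self-fluorescent or not available for retest; tested in PC3 cells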;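 further: first round at 10 µM; read as green reporter fluorescence; hits show the peak of a series up to 25 µM; 1 = signal of infected wells without compound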
INS promoter inh: TRM-6 insulin promoter activity inhibition | inhibition, % at 2 µM | TRM-6 cells (human fetal islet line), insulin promoter-eGFP reporter, imaging; reporter expression induced with tamoxifen | 130,000 tested, 0.9% active | AID 1273;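 active means inhibition above the mean plus 3 SD, with well images judged a real hit on visual review, cut at about 60% in these data, passing the limit was not always enough; inconclusive means inhibition over the cutoff but images rejected on review; inactive means inhibition not above the cutoff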
GALR2 agonist: activates the human galanin receptor 2 | GALR2-expressing cells, agonist activation read-out | activation, %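 (tested at 5 µM)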 | 140,000 tested, 0.48% active | AID 803;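 active means above mean plus 3 SD of all compounds, about 5% in these data, not always enough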;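 further: 0% = vehicle buffer wells and 100% = reference agonist at full effect; tested in CHO reporter cells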
Target sequence (O43603 whole entry, looked up): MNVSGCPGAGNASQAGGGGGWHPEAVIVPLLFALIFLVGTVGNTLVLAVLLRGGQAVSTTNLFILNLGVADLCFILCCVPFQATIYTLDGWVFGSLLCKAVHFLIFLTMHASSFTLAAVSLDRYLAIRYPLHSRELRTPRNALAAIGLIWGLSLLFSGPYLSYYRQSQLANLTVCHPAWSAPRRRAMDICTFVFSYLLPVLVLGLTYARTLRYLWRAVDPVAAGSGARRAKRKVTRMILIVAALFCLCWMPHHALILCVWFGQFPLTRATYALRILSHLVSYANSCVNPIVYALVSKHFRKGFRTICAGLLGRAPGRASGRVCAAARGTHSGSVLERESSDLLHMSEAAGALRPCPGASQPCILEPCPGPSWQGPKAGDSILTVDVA
INS promoter inh cell count: recorded beside INS promoter inh, whose call it bears; normalized cell count, %; measured here: cell count, toxicity; reference of the scale not given here;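 cells exposed to compound for 48 h; stained nuclei by imaging scaled within each plate; lower means fewer cells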
HSV replic up primary fold: second read-out of HSV replic up, no call of its own (marks repeat the call); fold increase; compound at 10 µM; measured here: primary screen fold increase 10 uM; tested in PC3 cells;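 GFP signal in the first replicate; 1 = infected wells without compound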
* = called active by the depositor.

For CCOC(=O)N/N=C/c1c(F)c(F)c(F)c(F)c1F the results were RGS16-Gao 108.1, PKD1 inh -11.2, HSV replic up inactive, INS promoter inh 5.4, GALR2 agonist -1.4, INS promoter inh cell count 61.5 and HSV replic up primary fold 1.06.
For COc1ccccc1N1CCN(CC(=O)c2c(C)[nH]c3ccccc23)CC1 the results were RGS16-Gao 102.0, PKD1 inh -13.8, HSV replic up inactive, GALR2 agonist -1.4 and HSV replic up primary fold 0.83.
Screening CCC(C(=O)Nc1ccsc1C(=O)OC)c1ccccc1 (stereo unspecified) returned RGS16-Gao 105.1, PKD1 inh -4.4, HSV replic up inactive and HSV replic up primary fold 0.96.
For CC1(C)CC(=O)C2=C(C1)Nc1ccccc1N=C2 the results were RGS16-Gao 101.2, PKD1 inh -5.0, HSV replic up inactive, INS promoter inh -5.1, GALR2 agonist -1.6, INS promoter inh cell count 48.9 and HSV replic up primary fold 1.21.
`C#CCOCCOCCOCCNc1nc(N2CCN(C(=O)[C@H]([C@@H](C)O)n3cc(CCCCN)nn3)CC2)nc(N2CCN(C(=O)[C@H]([C@@H](C)CC)n3cc(CCCN=C(N)N)nn3)CC2)n1` gave RGS16-Gao 111.1, PKD1 inh -10.0, HSV replic up inactive, INS promoter inh 15.0, GALR2 agonist -0.8, INS promoter inh cell count 86.0 and HSV replic up primary fold 0.76.
`CC1(C)C(=O)OC(c2cccs2)C(C)(C)C1=O` (stereo unspecified) gave RGS16-Gao 68.3, PKD1 inh 2.0, HSV replic up inactive, GALR2 agonist -1.9 and HSV replic up primary fold 0.87.
Screening CCn1c2ccccc2c2cc(NC(=O)CSc3nnc(-c4ccc(OC)c(OC)c4)n3N)ccc21 returned RGS16-Gao 99.2, PKD1 inh -5.5, HSV replic up inactive, INS promoter inh -31.4, GALR2 agonist -2.1, INS promoter inh cell count 152.9 and HSV replic up primary fold 0.87.
For COc1ccc(C2c3c(oc4ccc(C)cc4c3=O)C(=O)N2c2cc(C)ccn2)cc1OC (stereo unspecified) the results were RGS16-Gao 100.8, PKD1 inh -4.8, HSV replic up inactive, GALR2 agonist -3.1 and HSV replic up primary fold 0.81.
For CCN1CCN(CCNC(=O)CS(=O)(=O)Cc2nc(-c3ccc(C)cc3)oc2C)CC1 the results were RGS16-Gao 101.5, PKD1 inh -7.5, HSV replic up inactive, GALR2 agonist -3.0 and HSV replic up primary fold 0.87.
For O=c1c([N+](=O)[O-])c(N2CCCCC2)c2ccccc2n1-c1ccccc1 the results were RGS16-Gao 101.0, PKD1 inh 5.0, HSV replic up inactive, INS promoter inh -13.9, GALR2 agonist -0.8, INS promoter inh cell count 116.2 and HSV replic up primary fold 1.04.
Screening COc1ccc(C2CC(c3c(O)cc(C)oc3=O)=NCCS2)c(OC)c1 (stereo unspecified) returned RGS16-Gao 96.3, PKD1 inh -9.4, HSV replic up inactive, INS promoter inh -184.4, GALR2 agonist 0.4, INS promoter inh cell count 3.9 and HSV replic up primary fold 1.07.
For Cc1ccnc(SCc2cc(=O)c(OC(=O)c3ccc(S(=O)(=O)N4CCCC4)cc3)co2)n1 the results were RGS16-Gao 100.0, PKD1 inh -1.1, HSV replic up inactive, INS promoter inh -12.5, GALR2 agonist -1.6, INS promoter inh cell count 158.3 and HSV replic up primary fold 0.89.
Screening CC(Cc1ccccc1)C(=O)NCc1nc2ccccc2s1 (stereo unspecified) returned RGS16-Gao 86.5, PKD1 inh -8.0, HSV replic up inactive, INS promoter inh -23.8, GALR2 agonist -1.4, INS promoter inh cell count 68.4 and HSV replic up primary fold 0.91.
Screening COc1ccc(S(=O)(=O)Nc2cc(Sc3ncn[nH]3)c(O)c3ccccc23)cc1 returned RGS16-Gao 11.2*, PKD1 inh 2.7, INS promoter inh 22.9, GALR2 agonist 0.0 and INS promoter inh cell count 86.0.
For COc1ccc(-c2csc(-n3ncc(-c4ccccn4)c3N)n2)cc1 the results were RGS16-Gao 103.4, PKD1 inh -4.7, HSV replic up inactive, INS promoter inh -25.9, INS promoter inh cell count 162.8 and HSV replic up primary fold 0.88.
For CCOC(=O)C1C(=O)NC(N2CCCCC2)=NC1C(C)C (stereo unspecified) the results were RGS16-Gao 102.1, PKD1 inh 5.5, HSV replic up inactive, GALR2 agonist -1.2 and HSV replic up primary fold 0.93.
Cc1cccc(C)c1NC(=O)COC(=O)C1CC(=O)N(Cc2ccccc2)C1 (stereo unspecified) was read as RGS16-Gao 95.7, PKD1 inh -0.1, HSV replic up inactive and HSV replic up primary fold 1.07.
Fc1ccc(NC(=S)N2CCN(c3ncccn3)CC2)cc1 was read as RGS16-Gao 101.3, PKD1 inh -1.6, HSV replic up inactive and HSV replic up primary fold 0.97.
`Cc1ccccc1NC(=O)C(C)O/N=C/c1cccc([N+](=O)[O-])c1` (stereo unspecified) gave RGS16-Gao 106.9, PKD1 inh 2.7, HSV replic up inactive, INS promoter inh -2.7, GALR2 agonist -3.4, INS promoter inh cell count 126.0 and HSV replic up primary fold 0.983.
Screening O=C(CSc1nc2ccccc2[nH]1)N1c2ccccc2Sc2ccccc21 returned RGS16-Gao 98.7, PKD1 inh -12.0, HSV replic up inactive, INS promoter inh -21.4, GALR2 agonist -0.6, INS promoter inh cell count 99.6 and HSV replic up primary fold 0.95.
For COC(=O)c1c(NC(=O)Cc2cccs2)sc(C(=O)NC2CCCCC2)c1C the results were PKD1 inh -4.9, HSV replic up inactive, INS promoter inh -290.5, GALR2 agonist -1.5, INS promoter inh cell count 43.2 and HSV replic up primary fold 0.77.
`O=C(/C=C/c1cccs1)N1CCOCC1` gave RGS16-Gao 102.4, PKD1 inh -7.9, HSV replic up inactive, INS promoter inh 35.7, GALR2 agonist -1.6, INS promoter inh cell count 44.9 and HSV replic up primary fold 1.06.
For CN=C1SC(CC(=O)Nc2ccccc2F)C(=O)N1C (stereo unspecified) the results were RGS16-Gao 94.3, PKD1 inh -4.1, HSV replic up inactive, INS promoter inh -20.0, GALR2 agonist -0.9, INS promoter inh cell count 100.3 and HSV replic up primary fold 1.04.
For CC(C)CNc1nc(NC(C)(C)C)nc(Oc2ccc(=O)[nH]n2)n1 the results were RGS16-Gao 100.0, PKD1 inh -5.6, HSV replic up inactive and HSV replic up primary fold 0.95.
For O=C(CSc1ccc2nnc(-c3ccccn3)n2n1)Nc1ccc2c(c1)OCCO2 the results were RGS16-Gao 100.0, PKD1 inh 1.0, HSV replic up inactive, GALR2 agonist -5.0 and HSV replic up primary fold 0.91.
CC(C)OC(=O)Nc1ccc(-c2ccc(NC(=O)OC(C)C)cc2Cl)c(Cl)c1 was read as RGS16-Gao 96.7, HSV replic up inactive and HSV replic up primary fold 0.88.
Screening CCCN(CCO)CCCc1ccccc1 returned RGS16-Gao 103.7, PKD1 inh 1.4, HSV replic up inactive, INS promoter inh 0.0, GALR2 agonist -2.4, INS promoter inh cell count 15.8 and HSV replic up primary fold 1.03.
COCCCNC(=O)/C=C/c1ccc(Cl)cc1Cl was read as RGS16-Gao 102.6, PKD1 inh -15.5, HSV replic up inactive, INS promoter inh 3.3, GALR2 agonist -1.5, INS promoter inh cell count 83.0 and HSV replic up primary fold 0.94.
COCCn1c(C)cc(C(=O)CSc2nc3ccccc3o2)c1C was read as RGS16-Gao 102.9, PKD1 inh -1.6, HSV replic up inactive, GALR2 agonist -1.6 and HSV replic up primary fold 0.91.
For Cc1cccc(-c2nc(C)cc(=O)[nH]2)c1 the results were RGS16-Gao 101.5, HSV replic up inactive and HSV replic up primary fold 0.88.
Screening COC(=O)Cc1cc(=O)[nH]c(/N=C(/NC(=O)c2ccccc2)Nc2ccccc2C)n1 returned PKD1 inh -3.8, INS promoter inh 2.6, GALR2 agonist 2.0 and INS promoter inh cell count 147.8.
`O=C(CSc1nncn1-c1ccccc1)Nc1cccc(S(=O)(=O)N2CCCCC2)c1` gave RGS16-Gao 107.9, PKD1 inh -6.1, HSV replic up inactive, INS promoter inh 24.3, GALR2 agonist -2.1, INS promoter inh cell count 92.7 and HSV replic up primary fold 1.06.
CN1CC(=O)N(CC(=O)N2CCC(Cc3ccccc3)CC2)C1=O was read as RGS16-Gao 99.3, PKD1 inh 1.9, HSV replic up inactive and HSV replic up primary fold 0.94.
For COc1ccc(-c2nn(-c3ccccc3)cc2CO)cc1 the results were RGS16-Gao 104.8, PKD1 inh 1.3, HSV replic up inactive, INS promoter inh -6.2, GALR2 agonist -0.5, INS promoter inh cell count 107.3 and HSV replic up primary fold 0.92.
CC(C)Cc1oc(C(=O)O)cc1CN was read as RGS16-Gao 99.8, PKD1 inh -8.9, HSV replic up inactive, INS promoter inh 9.9, GALR2 agonist -0.9, INS promoter inh cell count 44.8 and HSV replic up primary fold 1.39.
CCCC1=NN(C(=O)Cc2ccc([N+](=O)[O-])cc2)C(O)(C(F)(F)F)C1 (stereo unspecified) was read as RGS16-Gao 98.9, PKD1 inh 3.7, HSV replic up inactive, INS promoter inh -16.7, INS promoter inh cell count 72.5 and HSV replic up primary fold 1.03.
`CCC(=O)Nc1cccc(SC)c1` gave RGS16-Gao 114.4, PKD1 inh -1.6, HSV replic up inactive, INS promoter inh -12.5, GALR2 agonist -0.7, INS promoter inh cell count 75.0 and HSV replic up primary fold 0.84.
`COc1ccccc1-c1cc(C(=O)N/N=C/C=C/c2ccccc2[N+](=O)[O-])c2ccccc2n1` gave RGS16-Gao 98.1, PKD1 inh -6.3, HSV replic up inconclusive, INS promoter inh 17.2, GALR2 agonist -1.7 and INS promoter inh cell count 70.6.
For Cc1ccoc1C(=O)N1CCCCC1C(=O)O (stereo unspecified) the results were RGS16-Gao 101.5, PKD1 inh -6.7, HSV replic up inactive, INS promoter inh 37.5, INS promoter inh cell count 104.6 and HSV replic up primary fold 0.95.
Screening COc1ccc(/C(O)=C2\C(=O)C(=O)N(CCN(C)C)C2c2cc(OC)c(OC)c(OC)c2)c(C)c1 (stereo unspecified) returned RGS16-Gao 101.9, PKD1 inh 5.3, HSV replic up inactive, INS promoter inh 7.1, GALR2 agonist -6.2, INS promoter inh cell count 84.2 and HSV replic up primary fold 1.01.
`Fc1cccc(-n2c(-c3ccco3)nc3nc4ccccc4nc32)c1` gave RGS16-Gao 99.4, PKD1 inh -23.7, HSV replic up inactive, INS promoter inh -7.1, GALR2 agonist -2.6, INS promoter inh cell count 120.9 and HSV replic up primary fold 2.26.
CCC(=O)Nc1ccc(S(=O)(=O)Nc2cccc(C)c2)cc1OC was read as RGS16-Gao 104.5, PKD1 inh -3.7, HSV replic up inactive, INS promoter inh -2.9, GALR2 agonist -1.2, INS promoter inh cell count 133.8 and HSV replic up primary fold 0.9.
COc1ccc(CCNC(=O)CSc2nc(O)c(C(C)C)c(=O)[nH]2)cc1OC was read as RGS16-Gao 100.9, PKD1 inh -8.8, HSV replic up inactive, INS promoter inh -283.3, GALR2 agonist -1.7, INS promoter inh cell count 99.0 and HSV replic up primary fold 0.86.
For CCN(C(=O)COC(=O)c1ccc(OC)c(S(=O)(=O)N2CCCc3ccccc32)c1)C1CCS(=O)(=O)C1 (stereo unspecified) the results were RGS16-Gao 101.8, PKD1 inh -11.8, HSV replic up inactive, INS promoter inh -28.6, INS promoter inh cell count 139.1 and HSV replic up primary fold 1.04.

For reference, part of the list above:
CCCC1=NN(C(=O)Cc2ccc([N+](=O)[O-])cc2)C(O)(C(F)(F)F)C1 (stereo unspecified) was read as RGS16-Gao 98.9, PKD1 inh 3.7, HSV replic up inactive, INS promoter inh -16.7, INS promoter inh cell count 72.5 and HSV replic up primary fold 1.03.
`CCC(=O)Nc1cccc(SC)c1` gave RGS16-Gao 114.4, PKD1 inh -1.6, HSV replic up inactive, INS promoter inh -12.5, GALR2 agonist -0.7, INS promoter inh cell count 75.0 and HSV replic up primary fold 0.84.
`COc1ccccc1-c1cc(C(=O)N/N=C/C=C/c2ccccc2[N+](=O)[O-])c2ccccc2n1` gave RGS16-Gao 98.1, PKD1 inh -6.3, HSV replic up inconclusive, INS promoter inh 17.2, GALR2 agonist -1.7 and INS promoter inh cell count 70.6.
For Cc1ccoc1C(=O)N1CCCCC1C(=O)O (stereo unspecified) the results were RGS16-Gao 101.5, PKD1 inh -6.7, HSV replic up inactive, INS promoter inh 37.5, INS promoter inh cell count 104.6 and HSV replic up primary fold 0.95.
Screening COc1ccc(/C(O)=C2\C(=O)C(=O)N(CCN(C)C)C2c2cc(OC)c(OC)c(OC)c2)c(C)c1 (stereo unspecified) returned RGS16-Gao 101.9, PKD1 inh 5.3, HSV replic up inactive, INS promoter inh 7.1, GALR2 agonist -6.2, INS promoter inh cell count 84.2 and HSV replic up primary fold 1.01.
`Fc1cccc(-n2c(-c3ccco3)nc3nc4ccccc4nc32)c1` gave RGS16-Gao 99.4, PKD1 inh -23.7, HSV replic up inactive, INS promoter inh -7.1, GALR2 agonist -2.6, INS promoter inh cell count 120.9 and HSV replic up primary fold 2.26.

An unsorted share of the library; 1.2% or so of the library scored in one or more.
